ClpP mod: qHTS Assay for Activators of ClpP | ATP-dependent Clp protease proteolytic subunit (Bacillus subtilis (strain 168)), P80244 | purified B. subtilis ClpP, FRET peptide cleavage, 20 min | Potency, µM (highest dose often 57.5 µM), for inactives: at the highest dose activity change, negative = active | 340,000 compounds, 1.9% hits | AID 651965, 2013; active = well fitted falling curve with a large enough effect; inconclusive = small, poorly fitted or top-dose-only effect; inactive = no such curve, though single readings can be large or run the other way; also: potency is read from the fitted curve at half-maximal effect; the source files actives as falling curves though it sought activators and does not explain the sign; nearly all actives have a fitted effect of over 65% in size; many hits overshoot -100%
Target sequence (P80244 whole entry, looked up): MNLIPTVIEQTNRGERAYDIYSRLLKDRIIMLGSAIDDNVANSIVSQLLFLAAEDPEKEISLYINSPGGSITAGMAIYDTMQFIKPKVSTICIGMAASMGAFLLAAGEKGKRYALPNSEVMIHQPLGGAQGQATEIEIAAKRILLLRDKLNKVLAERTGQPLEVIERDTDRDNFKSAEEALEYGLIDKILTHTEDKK
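Buffer: 100 mM Tris/HCl pH8, 100 mM KCl, 0.05% low protease BSA, 2.5% glycerol, 0.01% Tween-20. ClpP 10 microg/mL final; 20 min RT; delta FRET normalized to ADEP and DMSO controls.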
Menin MLL FP FL: qHTS Assay for Inhibitors Targeting the Menin-MLL Interaction in MLL Related Leukemias: Competition With Fluorescein Labeled MLL-derived Peptide | AID 1766, 2009 | FP activity change, % at 61.4 µM | Fluorescence polarization, fluorescein-MLL peptide displacement from menin | 290,000 tested, under 10 active; inconclusive = falling polarisation curve, or a change in total fluorescence; inactive = total fluorescence flat and polarisation flat or rising; no compound was filed as active; the % refers to the polarisation; negative = inhibition;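 also: % of control where 0% means no effect; inhibitors lower the polarisation; unlabelled MLL peptide was the positive control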
TRPML1 inh: qHTS for Inhibitors of the Human Mucolipin Transient Receptor Potential 1 (TRPML1); TRPML1-inducible cells, Ca2+ dye fluorescence, FDSS; active compounds read low; inhibition of EC80 agonist-evoked calcium signal; Mucolipin-1 (Homo sapiens), Q9GZU1; 390,000 compounds, 0.02% hits; activity change, negative = inhibition, % (no concentration beside the values); in the data active means activity change below about -50%; inconclusive means about -30% to -50%; inactive means above about -30%;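 also: stimulus is agonist 54-4 at its EC80 concentration; % is scaled to controls: 0 for no effect and ±100 for the full control effect; compound concentration not given in the record; the text of the record puts the active cut at -80%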
Target sequence (Q9GZU1 whole entry, looked up): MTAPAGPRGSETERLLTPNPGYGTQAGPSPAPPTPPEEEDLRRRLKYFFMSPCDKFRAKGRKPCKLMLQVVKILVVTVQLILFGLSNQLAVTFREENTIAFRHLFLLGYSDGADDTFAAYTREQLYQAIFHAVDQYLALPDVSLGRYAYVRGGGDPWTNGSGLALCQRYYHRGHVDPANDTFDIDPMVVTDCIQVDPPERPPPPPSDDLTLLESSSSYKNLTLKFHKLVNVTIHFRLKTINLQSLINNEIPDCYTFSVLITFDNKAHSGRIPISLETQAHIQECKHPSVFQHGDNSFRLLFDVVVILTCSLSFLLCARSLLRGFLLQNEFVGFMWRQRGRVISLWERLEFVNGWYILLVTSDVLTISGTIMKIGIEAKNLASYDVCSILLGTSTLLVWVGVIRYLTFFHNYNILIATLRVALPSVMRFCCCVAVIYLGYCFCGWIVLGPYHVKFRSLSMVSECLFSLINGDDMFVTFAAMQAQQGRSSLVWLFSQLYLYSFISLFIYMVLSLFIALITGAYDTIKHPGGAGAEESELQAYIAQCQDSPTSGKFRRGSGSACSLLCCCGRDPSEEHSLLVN
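TRPML1-DL cells, Tet-induced overnight (~16 h, 37 °C) at 1,500 cells/well, were loaded with Ca8 no-wash dye plus quencher for 45-90 min at room temperature. Compounds were pinned during FDSS kinetic reading; agonist 54-4 at EC80 (4 uM final) then added.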
TRPV1 PAM: HTS Assay for Compounds that Act as Potentiators of the Vanilloid Receptor 1 | 320,000 compounds, 0.02% hits | potentiation, % at 8.33 µM | AID 540277, 2011 | Transient receptor potential cation channel subfamily V member 1 (Homo sapiens), Q8NER1 | TRPV1-expressing cells, Fluo-8 calcium influx, capsaicin EC20 potentiation; host cell line not named in the record; control for the full effect not named in the record; active means potentiation above 80%; inconclusive means 30% to 80%; inactive means below 30%; also: 0% is about no effect
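Cells expressing TRPV1 were dye-loaded with Fluo-8 and read kinetically: 10 s baseline, 3 min after compound (agonist portion), then 2 min after EC20 capsaicin (allosteric enhancer portion). Calcium-bound dye fluorescence at 480/520 nm.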
gsp agonist: qHTS for Agonist of gsp, the Etiologic Mutation Responsible for Fibrous Dysplasia/McCune-Albright Syndrome: qHTS | gsp mutant cells, cAMP HTRF, 30 min; control for the full effect not named in the record | Potency, µM (doses to about 76.9 µM), inactives show at the highest dose activation (cAMP increase), hits mostly activators | 340,000 compounds, 0.13% hits | AID 624287, 2012; active = well fitted activation curve with a large enough effect; inconclusive = small, poorly fitted or top-dose-only effect, or another doubt; inactive = no such curve, though single readings can be large or run the other way; cell line not stated here;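 also: phosphodiesterase inhibitor Ro 20-1724 added with compounds to block cAMP breakdown; potency is read from the fitted curve at half-maximal effect; nearly all actives have a fitted effect of over 60% in size; about a fifth of the inactives were tested at one dose only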
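Cells stably selected in G418 were plated at 2000/well, grown 16-24 hr, then given compounds in DMSO with the PDE inhibitor […] (300 uM solution added) for 30 min at 37C; cAMP was read by HTRF.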
Sfp PPTase inh: qHTS Assay for Inhibitors of Bacillus subtilis Sfp phosphopantetheinyl transferase (PPTase) | 4'-phosphopantetheinyl transferase ffp (Bacillus subtilis), Q9F4F7 | Biochemical Sfp PPTase activity, qHTS | Potency, µM, without a hit: max response, negative = inhibition, actives largely listed as inhibitors | 310,000 compounds, 3.5% hits; active = well fitted inhibition curve with a large enough effect; inconclusive = small, poorly fitted or top-dose-only effect, or another doubt; inactive = no such curve, though single readings can be large or run the other way;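 also: the enzyme is Sfp with the accession as filed and its product quenches rhodamine fluorescence; potency is read from the fitted curve at half-maximal effect; 0% = enzyme reaction without inhibitor and -100% = no enzyme wells; top concentration of the series not given in the record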
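Sfp 15 nM + cpd, 15 min RT; start w/ rhodamine-CoA 5 uM, BHQ-2-YbbR 12.5 uM (final); 50 mM Hepes pH 7.6, 10 mM MgCl2, 0.01% NP-40, 0.01% BSA; read 525/598 nm at 0 and 30 min.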
gsp antagonist: qHTS for Antagonists of gsp, the Etiologic Mutation Responsible for Fibrous Dysplasia/McCune-Albright Syndrome: qHTS; 340,000 compounds, 0.4% hits; gsp-mutant cells, cAMP HTRF, 30 min; control for the full effect not named in the record; Potency, µM (titrated, usually from 76.9 µM), without a hit: top-dose activity change, negative = inhibition, actives largely listed as inhibitors; active = falling curve of any shape with a large fitted effect; inconclusive = falling curve, mostly with a smaller effect; inactive = flat or rising curve; cell line not stated here;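 also: intracellular cAMP measured with PDE inhibitor Ro 20-1724 present during compound exposure; potency is read from the fitted curve at half-maximal effect; % is scaled to controls: 0 for no effect and ±100 for the full control effect; nearly all actives have a fitted effect of over 65% in size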
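Cells, 2000/well, grown 16–24 h in DMEM 10% FBS with 0.5 mg/ml G418, then compounds plus […] (300 uM addition stock), 30 min at 37C. cAMP read by HTRF (cAMP-d2 and anti-cAMP antibody-K in lysis buffer) after 30 min RT.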
* hit, by the source's call; ? = inconclusive; . = not tested or not shown; & = joins results of further samples; [ ] = another dose, or the depositor's remark. Outcome played no part in choosing rows; about 4.9% have a hit in one of these screens.

Structure	ClpP mod	Menin MLL FP FL	TRPML1 inh	TRPV1 PAM	gsp agonist	Sfp PPTase inh	gsp antagonist
O=C(CN(c1ccccc1Cl)S(=O)(=O)c1ccccc1)N/N=C/c1ccccc1C(=O)O	.	0.2	15	1	-4%[15.4 µM]	26%	.
O=C(O)C1CCCCC1C(=O)NCCCn1ccnc1 (stereo not drawn)	-1.0%	15	11	20	10%	-3%	18%
CCOC(=O)C1CCN(c2c(N3CCCCCC3)c(=O)c2=O)CC1	2.3%	-1.3	15	0	-1%	-2%	-7%
COc1cc(/C=N/Nc2nc3ccccc3o2)cc(OC)c1O	?	3.3	0	1	30%	?	-4%
CC(C)NC(=O)Cn1nnc(-c2cccc(NC(=O)c3ccccc3F)c2)n1	-1.6%	4.1	-5	5	-1%	-3%	16%
CC(C)CCN(C(=O)c1csnn1)C(C(=O)NC1CCCC1)c1ccc(F)cc1 (stereo not drawn)	0.6%	.	-1	-23	8%[15.4 µM]	-1%	7%
Cc1ccc(OCC(=O)NNC(=O)C2CSC3(C)CCC(=O)N23)cc1 (stereo not drawn)	-5.9%	.	-12	-6	-48%[inhibitor]	.	7%
O=C(COC(=O)c1n[nH]c2ccccc12)Nc1ccccc1F	-3.5%	.	13	.	22%[15.4 µM]	.	-4%
O=C1C2CCC(C(O)C2)N1Cc1ccccc1 (stereo not drawn)	1.5%	0.5	3	7	2%	12%	12%
O=C1NCCN(Cc2ccoc2)C1CC(=O)N(CCO)Cc1ccccc1 (stereo not drawn)	.	-0.9	12	3	1%[15.4 µM]	18%	5%
c1ccc(-c2cnc(-c3cccnc3)o2)cc1	?	3.4	6	-11	?	10%	-5%
COc1ccc(CCC(=O)N2CCN(S(=O)(=O)c3cccs3)CC2)cc1	-3.4%	.	0	10	-2%	.	-11%
CCCNC(=O)CCn1cc(-c2ccc(OC)cc2)nc1CCN	-5.0%	.	3	-28	8%	.	12%
CC(C)c1c(C(=O)N/N=C/c2ccc(OCc3ccccc3)cc2)nnn1-c1nonc1N	31%	2.6	33	0	?	7%	-13%
O=C(NCCCN1CCc2ccccc2C1)Nc1ccc(Cl)cc1	-1.3%	-1.3	10	-15	6%	7%	11%
O=[N+]([O-])c1cccc(Nc2nc(Cl)nc(Cl)n2)c1	.	-1.1	1	-4	-6%[15.4 µM]	-27%	4%
O=C(O)Cn1c2ccccc2c2nc3ccccc3nc21	2.0%	.	-2	.	?	.	.
Cc1csc(=O)n1CC(=O)OCC(=O)NNC(=O)c1ccc([N+](=O)[O-])cc1	-1.6%	.	9	-7	?	.	8%
COCCN(C(=O)CSc1nnc(C)n1Cc1ccccc1)c1c(N)n(CC(C)C)c(=O)[nH]c1=O	-2.4%	23	11	3	-3%[15.4 µM]	21%	0%
N#Cc1cc2c(=O)n3ccccc3nc2n(CCCn2ccnc2)c1=N	4.4%	-5.3	7	-13	26%	3%	4%
COc1ccc(NC(=O)c2ccco2)cc1NC(=O)c1cccnc1	-1.2%	4.3	-9	13	1%	19%	10%
CCOC(=O)CN(C(=O)CSc1nnc2c(n1)[nH]c1c(C)cc(C)cc12)c1ccccc1	.	2.3	.	-16	.	6%	.
Cn1c(=O)c2nc(SCc3ccccc3)n(C)c2n(C)c1=O	.	.	11	.	38%	.	2%
O=C(CNC(=O)/C=C/c1ccco1)N=Nc1c(O)[nH]c2ccccc12	0.0%	0.7	0	-18	2%	20µM*	-7%
CC1CN(C(=O)c2cccc(S(=O)(=O)Nc3ccccc3Cl)c2)CC(C)O1 (stereo not drawn)	1.1%	.	-4	10	-37%[inhibitor]	16%	-33%
CC(C(=O)N(C1CC1)C1(C(=O)Nc2ccccc2)CCCC1)N1C(=O)c2ccccc2C1=O (stereo not drawn)	-0.9%	-6.6	0	1	7%	3%	-6%
Cc1cc(OCC(=O)NCC2CCC(C(=O)O)CC2)c2c(C)c(Cc3ccccc3)c(=O)oc2c1 (stereo not drawn)	4.5%	2.9	.	-1	.	0%	-7%
COc1cccc(CC(=O)n2nc(N)c3cc4ccc(OC)cc4nc32)c1	-3.8%	1.4	-6	?	-4%	?	-4%
Cc1ccc(C)c(OCc2nnc(N)s2)c1	-2.5%	5.9	-14	-9	-41%[inhibitor]	-20%	2%
COc1ccc(Nc2oc(COc3cccc(C)c3)nc2C#N)cc1	-1.6%	0.6	1	3	-9%	-18%	-11%
CC(C)NC(=O)NC(=O)COc1ccc(Br)cc1Br	-1.7%	2.5	-7	-5	8%	-1%	8%
COc1ccc(Nc2cc(C(=O)NCCCN3CCN(C)CC3)c3ccccc3n2)cc1OC	0.1%	1.1	14	7	-27%	-20%	-7%
CC(C)CNC(=O)c1cccc(NC(=O)C2CCCO2)c1 (stereo not drawn)	-0.6%	0.8	7	-1	-25%	20%	13%
COC(=O)CN(c1ccccc1OC)S(=O)(=O)c1ccccc1	0.0%	-0.6	7	-3	-41%[inhibitor]	3%	-8%
O=C(Nc1ccccc1)c1ccc(N2CCN(c3ccccn3)CC2)c(S(=O)(=O)N2CCOCC2)c1	?	2.3	14	1	-6%	14%	-4%
CN1CCN(C(=S)c2cn(CCOc3ccccc3F)c3ccccc23)CC1	0.1%	2.7	6	-1	7%[15.4 µM]	14%	4%
Cc1cccc(NC(=O)CCC(=O)NCCO)c1	-0.2%	3.7	10	-3	11%	3%	11%
CCN(CC)c1ccc(N=Cc2ccc([N+](=O)[O-])o2)cc1	-0.9%	20	-9	23	-21%	28µM*	?
COC(=O)c1sccc1NC(=O)Cn1nnc(-c2ccccc2C)n1	-5.0%	-0.4	22	-13	17%	15%	-9%
COc1ccc(C(=O)NC2(C(F)(F)F)C(=O)Nc3c2c(=O)[nH]c(=O)n3CCc2ccc(OC)c(OC)c2)cc1 (stereo not drawn)	-0.6%&3.7%	6.1	4&-12	13	-21%	2%	-5%
CCOc1ccc(CN2CCN(Cc3cccc4c3OCO4)CC2CCO)cc1 (stereo not drawn)	.	-2.1	-9	4	1%[15.4 µM]	5%	-2%
COc1cccc(CN(C)CC(=O)NCc2ccccc2Cl)c1OC	.	-1.3	7	7	6%[15.4 µM]	2%	-20%
Cc1oc(-c2ccc(-c3ccccc3)cc2)nc1CN1CCN(CC(=O)N(C)C)CC1	-9.2%	1.9	3	0	9%	-11%	4%
CCOC(=O)/C=c1\s/c(=C\c2ccc3cc(OC)ccc3c2)c(=O)n1CC(=O)NCc1ccc2c(c1)OCO2	-18%	?	-10	15	-6%[15.4 µM]	0%	8%
O=C(NCCN1CCNCC1)c1ccccc1O	3.7%	.	48	.	?	.	10%

2 of the compounds above, with two lines to a compound:
Below each SMILES – ClpP mod	Menin MLL FP FL	TRPML1 inh	TRPV1 PAM	gsp agonist	Sfp PPTase inh	gsp antagonist
> CCN(CC)c1ccc(N=Cc2ccc([N+](=O)[O-])o2)cc1
    -0.9%	20	-9	23	-21%	28µM*	?
> COC(=O)c1sccc1NC(=O)Cn1nnc(-c2ccccc2C)n1
    -5.0%	-0.4	22	-13	17%	15%	-9%

Following part
Structure	ClpP mod	Menin MLL FP FL	TRPML1 inh	TRPV1 PAM	gsp agonist	Sfp PPTase inh	gsp antagonist
Cn1c(=O)c2c(nc(SCc3ccc(C(=O)O)cc3)n2C)n(C)c1=O	2.1%	-1.6	-14	-9	?	11%	14%
COc1ccc([C@H]2CC(=O)C=C(c3ccc(-c4ccccc4)cc3)C2)cc1OC	-5.1%	.	-6	6	-317%[inhibitor]	.	-6%
CCNC(=O)COC(=O)c1cc(C)n(-c2ccccc2)c1C	.	1.4	3	-10	-9%	18%	-4%
COCc1c(C(=O)OCC(=O)N2c3ccccc3CC2C)oc2ccccc12 (stereo not drawn)	-13%	-0.8	32	1	-32%[inhibitor]	2%	2%
CN(C)CCCOC(=O)c1ccccc1	0.4%	-0.1	6	-3	-16%	12%	3%
Cc1cccc(C)c1NS(=O)(=O)c1c(C(=O)N2CCCCC2)c(C)n(C)c1C	2.6%	-7.6	-2	-4	6%	13%	9%
CCCCOC(=O)CSc1nc2c(cc1C#N)C(=O)CC(C)(C)C2	-1.7%	-0.6	-1	-16	6%	-1%	-14%
Cc1ccccc1NC(=O)c1nc[nH]c1C(=O)NCc1ccccc1	471%	2.0	-1	-13	-48%[inhibitor]	7%	9%
